YopH PTP inh – YopH tyrosine phosphatase inhibitors, primary screen, biochemical, fluorescence Ex485/Em525; 0.16% of 140,000 active; inhibition, %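 (about 10 µM by stock and volumes)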;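 active = inhibition of 50% or more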;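 also: controls were vehicle for no effect and minimum signal wells for full effect; inactives centre near -20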
RecA intein inh – Mtb RecA intein splicing inhibitors, primary screen, biochemical, fluorescence, HTS; Protein RecA (Mycobacterium tuberculosis (strain ATCC 25618 / H37Rv)), P9WHJ3; cell-free RecA intein splicing; inhibition, %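 (about 9 µM by stock and volumes)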; 0.75% of 290,000 active; AID 2221, 2009; in the data active = inhibition above about 30%; inconclusive = no clear call, values can overlap the other calls;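 also: 0% = vehicle wells and 100% = reference inhibitor control wells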
Target sequence (P9WHJ3 whole entry, looked up): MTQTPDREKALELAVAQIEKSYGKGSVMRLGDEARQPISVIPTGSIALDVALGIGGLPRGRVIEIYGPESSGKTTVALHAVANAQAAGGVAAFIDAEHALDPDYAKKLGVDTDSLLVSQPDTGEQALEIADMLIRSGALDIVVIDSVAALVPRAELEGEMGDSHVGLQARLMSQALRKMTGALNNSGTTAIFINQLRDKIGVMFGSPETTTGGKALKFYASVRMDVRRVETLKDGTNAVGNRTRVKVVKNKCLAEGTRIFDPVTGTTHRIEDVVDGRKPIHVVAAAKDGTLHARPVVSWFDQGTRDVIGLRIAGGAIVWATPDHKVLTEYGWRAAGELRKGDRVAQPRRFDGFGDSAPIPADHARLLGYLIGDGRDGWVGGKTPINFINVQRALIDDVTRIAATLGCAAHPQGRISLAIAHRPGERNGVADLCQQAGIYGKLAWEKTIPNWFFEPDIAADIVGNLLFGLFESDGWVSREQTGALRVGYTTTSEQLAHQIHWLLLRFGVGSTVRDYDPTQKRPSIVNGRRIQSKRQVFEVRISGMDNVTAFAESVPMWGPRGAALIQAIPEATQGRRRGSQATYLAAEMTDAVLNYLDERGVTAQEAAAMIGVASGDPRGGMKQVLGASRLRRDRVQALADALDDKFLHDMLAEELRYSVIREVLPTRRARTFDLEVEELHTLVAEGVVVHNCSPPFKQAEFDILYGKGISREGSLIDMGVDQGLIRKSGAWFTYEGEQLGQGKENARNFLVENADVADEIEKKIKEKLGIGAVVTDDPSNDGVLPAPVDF
Mtb bLac sens – beta-lactam sensitization of Mtb H37Rv, H37Rv. AID 434955, 2010. M. tuberculosis H37Rv growth with meropenem, percent inhibition; hits of this screen are not shown here. 0.27% of 330,000 active. inhibition, % at 25 µM;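 active = about 74% or more and at least 40 points above the plate without the antibiotic, then above 30% in a dose series; inconclusive = first-round hits that could not be retested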;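 also: growth measured after seven days incubation then overnight dye step; 0% = bacteria only wells and 100% = bacteria with antibiotic; twin plates without the antibiotic show which effects depend on it; some results filed as inactive read as strong as hits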
Mtb growth – M. tuberculosis H37Rv growth inhibitors, H37Rv strain (AID 1626); inhibition, % at 10 µM; hits with a dose series show IC50 in µM; 0.95% of 220,000 active; M. tuberculosis H37Rv growth inhibition; higher % means a stronger effect;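 active = confirmed in a dose series; inconclusive = inhibition above 80% but not taken into the dose series; inactive = below 80% or under 30% at every dose of the series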;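 also: bacteria incubated seven days before Alamar blue readout; 0% = bacteria only wells and 100% = bacteria with antibiotic wells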
Arbovirus anti – antivirals against arbovirus infection, primary screen, cell-based, full library, 10K replicate subset; inhibition, % at 10 µM; arbovirus infection cell-based antiviral screen; 0.37% of 200,000 active;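 active = inhibition from about 30%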;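 also: bluetongue infection of BSR cells; cell survival read as ATP light after 72 h; 0% = infected wells without compound and 100% = uninfected wells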
Arbovirus anti repeat – further read-out of Arbovirus anti, marked with its call; inhibition, %; measured here: 10K subset replicate screen; many hits read low in the repeat;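 first of two repeat runs on a subset; 0% = infected and 100% = uninfected wells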
An asterisk follows results filed as active; ? = inconclusive; . = no result given; & = joins results of further samples. These rows are one share of the data. The share of hits here may be higher or lower than overall.

SMILES	YopH PTP inh	RecA intein inh	Mtb bLac sens	Mtb growth	Arbovirus anti	others
COCCNC(=O)c1sc2ncn(CC(=O)N3CCCCC3)c(=O)c2c1C	-25	1.5	1	-1%	5
CC1(C)CC(=O)C2=C(C1)C(c1cn(-c3ccccc3)nc1-c1ccccc1)C(C#N)=C(N)O2 (centres undefined)	-21	7.9	9	1%	-7
O=S(=O)(c1ccc(F)cc1)n1ccc(-c2cnc(-c3ccccc3)s2)n1	-50	0.9	-5	4%	-6
O=C(Cc1ccc(Cl)cc1)Nc1nc2ccccc2[nH]1	-16	-1.7	15	-7%	-5
CCC1CCCCN1CCCNC(=O)c1cc2c(=O)oc3ccc(C)cc3c2s1 (centres undefined)	.	-1.5	5	.	.
COc1cc(/C=C/C(=O)c2ccc3c(c2)OCCO3)cc(OC)c1OC	.	3.9	29	.	.
CC(C(O)c1ccc(O)cc1)N1CCC(Cc2ccccc2)CC1 (centres undefined)	.	-1.5&3.0	-3&1&-5	-6%&7%&-3%	-3&-12
CN(C(=O)c1ccc2c(c1)S(=O)(=O)N=C1CCCCCN12)c1ccccc1	.	-0.3	0	.	.
CN(C)S(=O)(=O)c1ccc(C(=O)Nc2ccnn2C2CCCCC2)cc1	4	-0.5	-1	-2%	11
Cc1cc(C)n(C2CCCCC2OC(=O)CCc2ccccc2)n1 (centres undefined)	.	-0.3	0	15%	.
CCOC(=O)C1CCCN(C(=O)COC(=O)C2=COCCO2)C1 (centres undefined)	9	-1.8	-1	-4%	7
CC(NC(=O)OC1CCCCC1)N1C(=O)C2C3C=CC(C3)C2C1=O (centres undefined)	0	0.6	-18	-4%	0
COc1ccc(S(=O)(=O)N2CCCN(Cc3cccc(F)c3)CC2)cc1	-17	-0.8	-4	.	-1
O=C1CCCC(O)=C1N=Nc1ccc2ncsc2c1	-5	-11	1	-4%	-10
CCOc1cc(CN2CCCCCC2)ccc1OC	.	-0.3	-6	.	.
O=C(O)Cc1ccc(O)cc1	.	-1.8	-4	.	.
c1cnc(N2CCN(Cc3ccc4c(c3)OCO4)CC2)cn1	.	.	-4	0%	-2
COc1ccc(CCNC(=O)CCCOc2ccc(C)cc2)cc1OC	-18	-0.8	3	4%	10
CCCC(=O)NC(c1ccco1)c1cc([N+](=O)[O-])c2cccnc2c1O (centres undefined)	.	2.4	1	-4%	-24
Cc1ccccc1NC(=S)NCCc1c[nH]c2ccccc12	-12	1.6	3	5%	12
CCNC(=S)N1CCC(NC(=O)C2CCCCC2)CC1	-60	0.3	-4	-4%	2
O=C(Oc1ccc(Br)cc1C(=S)N1CCCCC1)c1cc([N+](=O)[O-])cc([N+](=O)[O-])c1	18	64*	-13	-7%	3
O=C(Nc1ccc(F)c(F)c1)c1ccccc1-c1ccccc1	-26	4.6	6	3%	0
CC/C(O)=C1\C(=O)CCCC1=NCc1nc2ccccc2[nH]1	.	-0.5	3	-5%	0
N/C(=N\OC(=O)c1cc(Cl)ccc1Cl)c1ccccn1	-50	0.9	35	11%	-4
O=C(O)CSc1nnnn1-c1ccccc1	-17	3.2	-1	-8%	8
CC(C)(C)OC(=O)N1CCN(c2ccc([N+](=O)[O-])cc2)CC1	.	2.6	5	6%	0
CC(C)C(=O)N1CCN(c2ccc(NC(=S)NC(=O)c3cc4ccccc4o3)cc2)CC1	.	-5.8	97	.	.
COc1ccc(C(=O)C[n+]2cn(C(F)F)c3ccccc32)c(F)c1	.	-0.4	-5	8%	-2
Cc1ccccc1CC(=O)NC1CCCc2ccccc21 (centres undefined)	.	-4.0	10	.	.
COc1cccc(C(=O)Nc2sc3c(c2C#N)CCN(C(C)=O)C3)c1	.	7.1	1	4%	-15
CC(=O)c1ccc(N2CCC(c3cc(-c4ccc(Cl)cc4)n[nH]3)CC2)c([N+](=O)[O-])c1	10	-5.6	11	11%	-23
CCOC(=O)c1ccc(S(=O)(=O)N2CCN(C(=O)c3cc(=O)c4ccccc4o3)CC2)cc1	.	-0.9	3	-4%	11
CC(NC(=O)C(NC(=O)C1CCCN1C(=O)OC(C)(C)C)C(C)C)C(N)=O (centres undefined)	-7	-0.3	-3	-6%	-1
COC(=O)c1sccc1NC(=O)c1cc(OC)c(OC)c(OC)c1	-36	7.5	-1	-2%	-3
COC(=O)c1ccccc1SC(CC(=O)c1ccccc1)c1ccc(F)cc1 (centres undefined)	.	4.8	30	1%	.
O=C(NCc1ccco1)/C(=C\c1cccs1)NC(=O)c1cccs1	.	2.6	-4	-6%	1
C#CCOc1nc(Nc2cccc([N+](=O)[O-])c2)nc(OCC#C)n1	.	4.0	3	11%	-15
C=CCn1c(COc2cccc3ccc(C)nc23)nnc1SCC(=O)OC	-22	-1.4	6	-4%	13
Cc1ccc(O)c(C2=NCCNC(C(F)(F)F)=C2)c1	-22	0.5	8	1%	8
COc1ccc(OCCN2C(=O)NC(C)(c3ccc(C)cc3)C2=O)cc1 (centres undefined)	2	2.4	-13	-5%	4
COc1ccccc1NS(=O)(=O)c1ccc(S(=O)(=O)N2CCOCC2)cc1	.	.	-12	-6%	13
O=C(O)c1ccc(Cn2c(SCc3cc(=O)n4cc(Br)ccc4n3)nc3ccsc3c2=O)cc1	.	1.9	17	4%	16
CC(=O)NS(=O)(=O)c1ccc2c(c1)Cc1cc(S(=O)(=O)NC(C)=O)ccc1-2	.	0.0	0	.	.
Nc1ccccc1SCC(=O)Nc1nccs1	.	.	0	-2%	-5
Clc1nc2ccccc2nc1-c1ccccc1	.	0.7	-5	-4%	.
Cc1ccc2nc(-c3ccc(NC(=O)COC(=O)c4cncc(Br)c4)cc3)sc2c1	-5	1.5	.	4%	11
Cc1cccc(/C(N)=N/OC(=O)CCC2CCCCC2)c1	-26	4.9	2	0%	3
Cc1ccc(NNC(=O)c2c(F)cccc2Cl)cc1C	.	-0.2	96	58%	.
C[C@@H]1O[C@@H](O[C@H]2[C@H](Oc3cc(O)c4c(c3)OC(c3ccc(O)cc3)CC4=O)O[C@H](CO)[C@@H](O)[C@@H]2O)[C@H](O)[C@H](O)[C@H]1O (some centres undefined)	.	0.1	2	.	.
Cc1ccc(NC(=O)C(C)OC(=O)c2ccc(Cl)nc2)cc1S(=O)(=O)N1CCOCC1 (centres undefined)	.	-0.5	7	.	.
CC1SC(C)C(=O)N(CC(=O)Nc2ccc([N+](=O)[O-])cc2)C1=O (centres undefined)	.	1.2	-10	-10%	7
Brc1c(CSc2nnc(-c3ccco3)o2)nc2ccccn12	-34	-0.2	-4	-6%	5
C/C(=C\C(=O)c1ccc(F)cc1)Nc1ccc(N2CCOCC2)cc1	4	-0.9	1	-4%	-13
O=C(NCc1n[nH]c(=S)n1-c1ccc(Cl)c(Cl)c1)c1cccs1	.	0.5	-7	-2%	3
COc1ccc(NC(=O)/C(=C\c2cccs2)NC(=O)c2ccco2)cc1	.	-0.9	5	2%	2
O=C(CSc1nnc(CNC(=O)c2cccs2)o1)Nc1cccc(Cl)c1	.	1.2	-1	.	.
COc1ccc(N(CC(=O)Nc2ccccc2C)S(=O)(=O)c2ccccc2[N+](=O)[O-])c(OC)c1	.	2.7	-5	-3%	-6
O=c1ccc(-c2ccc(S(=O)(=O)Nc3cccc(F)c3)o2)n[nH]1	.	-4.9	-2	.	.
COC(=O)c1ccc(NC(=O)c2ccc(NC(=O)c3ccco3)cc2)cc1	.	-1.2	-8	.	.
The list goes on:
SMILES	YopH PTP inh	RecA intein inh	Mtb bLac sens	Mtb growth	Arbovirus anti	others
Oc1ccc(Cl)cc1CNc1nccs1	.	0.9	9	.	.
COc1cccc(-n2ccnc2SCC(=O)Nc2ccccc2)c1	-36	3.5	-4	2%	4
COc1ccc(S(=O)(=O)N/N=C\c2ccc(OC)c(COc3ccc(C)cc3[N+](=O)[O-])c2)cc1	-22	-1.7	-5	-8%	-7
CCOC(=O)C1CCCN(C(=O)Cc2c(F)cccc2Cl)C1 (centres undefined)	-15	-0.4	3	-5%	4
CC(C)(C)N=Cc1c(O)ccc2oc3c(c12)CCCC3	.	0.3	0	.	.
CCCNC(=O)c1cccc(S(=O)(=O)N2CC3(C)CC2CC(C)(C)C3)c1 (centres undefined)	.	12	2	.	.
CC(=O)c1c(C)[nH]c(C(=O)OCCCCN2C(=O)c3ccccc3C2=O)c1C	-24	-1.1	-10	-7%	12
O=C(NCCN1CCN(C(=O)C(c2ccccc2)c2ccccc2)CC1)C(=O)Nc1ccccc1	-10	-1.9	-5	4%	-11
CC(C)c1ccc(-n2c(O)c(/C=N/NC(=O)c3ccncc3)c(=O)[nH]c2=O)cc1	-3	1.5	99	?	10
CCOC(=O)C1CCCN(CCC(=O)Nc2cccc(Cl)c2C)C1 (centres undefined)	.	1.5	3	.	.
O=C(NC1CC1)C1=C[C@@H](C2CC2)C[C@@H](OCCCCO)O1	.	-4.2	3	-11%	.
COc1ccc(/C=C(/NC(=O)c2cccs2)C(=O)Nc2ccc(C)cc2)cc1OC	-25	0.6	13	4%	-14
CN1Cc2ccccc2CC1CNCc1c(C(=O)N2CCCC2)nc2ccccn12 (centres undefined)	.	1.1	-4	-3%	4
c1ccc(-c2nc3ccccc3[nH]2)nc1	-24	0.7	14	-4%	-10
CCc1ccc(C2CC(c3cccc(Cl)c3)n3nc(N)nc3N2)cc1 (centres undefined)	-41	2.4	3	0%	6	Arbovirus anti repeat=-18

Seven compounds drawn at random from the list so far, as already listed:
SMILES	YopH PTP inh	RecA intein inh	Mtb bLac sens	Mtb growth	Arbovirus anti	others
O=c1ccc(-c2ccc(S(=O)(=O)Nc3cccc(F)c3)o2)n[nH]1	.	-4.9	-2	.	.
CC(=O)c1c(C)[nH]c(C(=O)OCCCCN2C(=O)c3ccccc3C2=O)c1C	-24	-1.1	-10	-7%	12
CN(C(=O)c1ccc2c(c1)S(=O)(=O)N=C1CCCCCN12)c1ccccc1	.	-0.3	0	.	.
CC(C(O)c1ccc(O)cc1)N1CCC(Cc2ccccc2)CC1 (centres undefined)	.	-1.5&3.0	-3&1&-5	-6%&7%&-3%	-3&-12
COC(=O)c1ccc(NC(=O)c2ccc(NC(=O)c3ccco3)cc2)cc1	.	-1.2	-8	.	.
CC(C)(C)OC(=O)N1CCN(c2ccc([N+](=O)[O-])cc2)CC1	.	2.6	5	6%	0
CC(C)c1ccc(-n2c(O)c(/C=N/NC(=O)c3ccncc3)c(=O)[nH]c2=O)cc1	-3	1.5	99	?	10

Carrying on:
SMILES	YopH PTP inh	RecA intein inh	Mtb bLac sens	Mtb growth	Arbovirus anti	others
O=C1[C@@H]2[C@H](Cc3ccc(O)cc3)N[C@]3(C(=O)Nc4ccccc43)[C@@H]2C(=O)N1c1ccc(F)cc1	-29	1.5	6	-4%	10
Cc1ccc(/C=N/NC(=O)c2c[nH]c3ccccc23)o1	-38	-0.5	5	3%	2
Cc1cc(=O)n(C)c(=O)n1CCCCCOc1cccc([N+](=O)[O-])c1	-29	1.5	-1	-1%	12
CCC(C)[C@H](NS(=O)(=O)c1ccc(C)cc1)C(=O)N1CCC(C(=O)N2CCC(C(N)=O)CC2)CC1 (some centres undefined)	.	17	-6	.	.
CC(C)N(Cc1nccn1C)C(=O)c1cc(COc2cccc(C(F)(F)F)c2)on1	.	-1.1	-1	.	.
COc1cccc(CN(C(=O)Cc2c[nH]c3ccccc23)C(C(=O)NC2CCCCC2)c2cccs2)c1 (centres undefined)	-18	4.6	10	4%	-19
COc1ccc(CN(C)C(=O)c2cc(S(=O)(=O)Nc3ccccc3F)ccc2C)c(OC)c1	.	-2.4	?	.	.
Cc1cccc2cc(CN(Cc3cccs3)C3(c4nnnn4C4CCCC4)CCCC3)c(=O)[nH]c12	-42	1.3	-2	-2%	0
O=C(/C=C/c1ccccc1)OCCN1C(=O)c2ccccc2C1=O	.	-2.7	-3	.	.
O=C(NC(=O)c1cccc(F)c1)Nc1nc(-c2ccc(F)cc2)cc(C(F)(F)F)n1	.	-10	-9	-1%	3
COc1ccccc1/C=C1\SC(=S)N(CC(=O)NC2CCS(=O)(=O)C2)C1=O (centres undefined)	.	1.5	-5	.	.
COC1=C/C(=C/c2c(N)n3c(nc2=O)sc2cc(S(C)(=O)=O)ccc23)C=CC1=O	.	1.9	-7	-12%	.

Among those listed so far, four contain bromine.
SMILES	YopH PTP inh	RecA intein inh	Mtb bLac sens	Mtb growth	Arbovirus anti	others
O=C(Oc1ccc(Br)cc1C(=S)N1CCCCC1)c1cc([N+](=O)[O-])cc([N+](=O)[O-])c1	18	64*	-13	-7%	3
O=C(O)c1ccc(Cn2c(SCc3cc(=O)n4cc(Br)ccc4n3)nc3ccsc3c2=O)cc1	.	1.9	17	4%	16
Cc1ccc2nc(-c3ccc(NC(=O)COC(=O)c4cncc(Br)c4)cc3)sc2c1	-5	1.5	.	4%	11
Brc1c(CSc2nnc(-c3ccco3)o2)nc2ccccn12	-34	-0.2	-4	-6%	5

Bioassay records deposited in PubChem by several laboratories.
